From PubChem BioAssay
Autofluor counter: flagged as autofluorescent in microsphere protease counterscreen; fluorescence intensity (no concentration beside the values); actives 3.1% (n = 360,000); compound autofluorescence counterscreen, microsphere flow cytometry; stronger effect = higher value;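 active = at least 3 SD above the mean of all compounds, about 16000 in these data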;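 note: 100 nL of 1 mM stock went into each well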
Sa ugtP lethal: kills S. aureus RN4220 lacking UgtP. AID 1259309. growth inhibition, % (test concentration not listed). actives 0.54% (n = 330,000). S. aureus RN4220 ugtP deletion, OD600 growth, 16 h; some inactives read as strong as hits;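 active = z-score under -3 and OD600 up to 0.15 on both plates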;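 note: plate controls were untreated wells for no effect and antibiotic for full effect; wells of about 80 µL received 100 nL stock; the first replicate is given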
BJeLR lethal: kills HRASV12-expressing BJeLR cells | AID 1554 | BJeLR (HRASV12) viability, CellTiter-Glo ATP luminescence, 48 h; reference of the scale not given here | inhibition, % (concentration not given with the values) | actives 0.17% (n = 300,000);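 active = replicate mean above 50%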;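 note: 50 nL library stock added to about 25 µL; numbers are from one replicate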
PrP 5UTR inh: suppresses PrP 5' UTR mRNA reporter expression. cell-based PrP 5' UTR mRNA reporter, plate reader. AID 488862. inhibition, % (test concentration not listed). actives 0.35% (n = 340,000);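 active = every replicate at 50% or more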;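 note: 0 = median of the neutral control wells; tested in H4 reporter cells; numbers are from one replicate; inactives centre near -14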
Mtb hypoxia rep: Mtb hypoxia fluorescent reporter inhibition; M. tuberculosis hypoxia-regulated fluorescent reporter, fluorescence; fluorescence inhibition, % (test concentration not listed); actives 0.1% (n = 300,000); AID 1159583;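 active = 35 to 45% if threefold the growth effect, above 45% if 1.5-fold the growth effect; inactive = the rest, general growth blockers included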;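 note: wells of about 50 µL received 100 nL stock; 0% = vehicle wells and 100% = reference inhibitor wells; whole bacteria with a GFP reporter of the hypoxia response; strong numbers were not always called active; many hits fall short of the cut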
Sa RN4220 lethal: kills Staphylococcus aureus RN4220; S. aureus RN4220 growth, OD600, 16 h; inhibition, % (test concentration not listed); actives 0.33% (n = 330,000); AID 1259311;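 active = z-score of -3 or lower and OD600 up to 0.18 on both plates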;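 note: plate controls were untreated cells for no effect and reference antibiotic for full effect; stock transfer was 100 nL into about 80 µL; one replicate is shown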
Mtb hypoxia rep growth: also measured in Mtb hypoxia rep; calls as there; growth inhibition, %; measured here: M. tuberculosis growth (absorbance);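 0% = vehicle and 100% = reference antibiotic; read after six days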
* hit, by the source's call; / = no result given.

SMILES	Autofluor counter	Sa ugtP lethal	BJeLR lethal	PrP 5UTR inh	Mtb hypoxia rep	Mtb hypoxia rep growth	Sa RN4220 lethal
CC(C)[C@H](NC(=O)[C@@H]1CSCN1C(=O)OC(C)(C)C)C(=O)NCC1CCC(C(=O)O)CC1 (some centres not stated)	3836	2	-3	-26	8	2	2.5
Cn1c(C(=O)O)cnc1Sc1ncc(C(F)(F)F)cc1Cl	2013	4	6	-15	5	10	2.0
COC(=O)[C@H](CCSC)NC(=O)Nc1ccc(C)c(C)c1	21760*	5	-6	-20	8	4	2.1
Cc1cccc(C)c1NC(=S)NC1CCCCC1	2460	7	19	-14	-14	-19	3.5
CCOC(=O)c1cnn(-c2ccc(Cl)cc2)c1C1CCN(C(=O)OC(C)(C)C)CC1	3174	6	-5	-17	2	15	0.4
O=c1c2ccccc2nc(SCc2ccccc2)n1Cc1ccco1	4612	14	-16	-8	5	8	-6.5
COc1cc(C(=S)N2CCOCC2)cc(OC)c1OC(=O)c1ccccc1[N+](=O)[O-]	3076	-10	1	-4	-9	-8	-7.2
Nc1c(-c2ccc(Cl)cc2)cnn1-c1cccc([N+](=O)[O-])c1	9876	-7	-21	-41	-9	8	8.6
CC(=O)Nc1nc(C)c(Oc2ccc(C)cc2)c(=O)[nH]1	5784	9	-3	-26	14	11	2.1
O=C(CON=Cc1ccc(OC(F)F)cc1)NCc1cccs1	/	5	/	/	4	1	0.6
O=C(N/N=C1\C2CN3CCN(C2)CC1(c1ccccc1)C3)c1ccc(F)cc1	2259	/	-4	-14	/	/	/
CCCCC(c1nnnn1C1CCCC1)N1CCN(C2CCCC2)CC1 (configuration not stated)	2800	-1	-7	15	/	/	3.0
CC(Sc1nc(N)cc(=O)[nH]1)C(=O)Nc1cccc(Cl)c1 (configuration not stated)	2351	7	2	-16	0	15	0.0
Cc1ccccc1CS(=O)(=O)c1ccc(C(=O)N2CCOCC2)cc1[N+](=O)[O-]	5595	2	15	-7	-13	4	2.9
CCC1NC(=O)c2cc(S(N)(=O)=O)c(Cl)cc2N1 (configuration not stated)	5991	-5	/	-4	0	4	-0.2
CCn1nnc(NC(=O)c2cccnc2)n1	3266	0	4	-10	4	7	-0.1
O=C(NCCc1ccc(S(=O)(=O)N2CCCC2)cc1)c1cccs1	2588	-4	8	-11	-8	4	3.9
O=C(CCc1nc(-c2ccccc2)no1)NCc1ccccc1CN1CCOCC1	3862	-3	/	-10	-7	0	-2.5
COC(=O)c1ccc(NC(=O)CSCc2ccccc2C)cc1	22086*	10	-19	1	2	14	-2.6
COC(=O)c1ccc(OCC(O)CN(CC(C)C)CC(C)C)cc1 (configuration not stated)	4679	5	6	-8	/	/	4.7
O=C1C(=O)N(CCN2CCOCC2)C(c2ccccc2)/C1=C(\O)c1ccc2c(c1)OCCO2 (configuration not stated)	6484	9	1	-2	3	2	0.3
CCOc1ccc2nc(N(CCCN(C)C)C(=O)c3ccc4c(c3)CCCC4)sc2c1	4599	-8	-2	-19	21	-5	-3.9
COC(=O)C1=C(C)N(CCc2c[nH]c3ccc(OC)cc23)C(=O)C1	4985	-6	-3	-1	-9	14	0.2
O=C(CSc1ncn(-c2ccccc2)n1)Nc1ccc2c(c1)OCCO2	24180*	10	6	-24	5	1	3.2
COc1ccc(OC)c2sc(N(CCN(C)C)C(=O)/C=C/c3cccs3)nc12	5978	/	14	1	/	/	/
CCN1C(=O)C2C(c3ccc(-c4ccc5c(c4)OCO5)c(OC)c3)N3CCCC[C@@]3(C(=O)OC)C2C1=O (some centres not stated)	/	1	/	/	-8	-9	11
O=C1CCC([N+](=O)[O-])C(c2cccc(Br)c2)N1 (configuration not stated)	2203	7	-1	-19	5	8	2.7
O=C(NCC1CC1)Nc1cccc(Cl)c1	5893	-9	-1	-30	3	8	-3.7
NC(=O)C1(N2CCCCC2)CCN(C(=S)Nc2cccc(Cl)c2)CC1	9699	4	-1	-28	9	-3	2.5
COc1ccc(NC(=O)CN2CCN(CC(=O)Nc3ccccc3F)CC2)c(OC)c1	2809	5	-2	8	/	/	-1.5
Cc1csc(CN(C)C(=O)CC2C(=O)NCCN2Cc2ccc(F)c(F)c2)n1 (configuration not stated)	3980	-6	-2	-10	-6	-5	-2.5
Brc1ccc(C=Nc2ccc3c(c2)OCCOCCOCCO3)s1	6617	-6	3	-2	9	3	9.7
COC(=O)c1c(NC(=O)c2ccn(C)n2)sc2c1CCC2	5359	8	5	-4	2	3	2.4
CC(C)(C)N1CC(C(=O)Nc2ccc(S(N)(=O)=O)cc2)CC1=O (configuration not stated)	3649	2	5	-18	6	7	1.4
C=CCNC(=O)CCCCC(=O)NCC=C	9653	-4	4	-34	1	2	-0.6
CCN(CC)CCN(CC)Cc1ccccc1Br	9688	2	-10	-35	5	10	4.7
C/C(=N\NC(=O)C(=O)Nc1cc(C)ccc1C)c1ccncc1	4013	/	-2	-3	/	/	/
CCOc1ccc(Nc2oc(Cc3ccccc3)nc2C#N)cc1	2361	1	-1	-30	19	14	3.3
CC(=O)N1c2ccc(S(=O)(=O)NCC3CCC(C(=O)NCc4ccco4)CC3)cc2CC1C (configuration not stated)	4875	5	7	-4	8	1	2.0
COc1cc2oc3ccccc3c(=O)c2cc1OC	5010	9	-1	-28	/	/	10
O=C1CSC(c2ccccc2)N1Cc1ccccc1 (configuration not stated)	16347*	/	-8	-52	/	/	/
Cc1ccccc1CNC(=O)C1CCCN(c2cnccn2)C1 (configuration not stated)	5754	0	-5	-15	1	2	-1.4
COc1ccc(S(=O)(=O)N2CCCC(C(=O)NCCCn3ccnc3)C2)cc1OC (configuration not stated)	3495	2	2	5	-14	-4	0.3
CCOC(=O)c1ccc(NC(=O)CC2S/C(=N/N=C3/NC(=O)CS3)NC2=O)cc1 (configuration not stated)	4415	11	1	-7	10	-1	0.2
Cc1ccc(-c2n[nH]c(=S)n2/N=C/C=C/c2ccccc2[N+](=O)[O-])cc1	2967	/	0	-21	/	/	/
CCN1C(=O)C(=Cc2c(C)n(CC(=O)NCC3CCCO3)c3ccccc23)C(=O)N(CC)C1=S (configuration not stated)	5255	5	-5	1	3	12	2.8
Cn1cc(C(=O)NCC(=O)Nc2ccccc2Br)cn1	3948	-3	/	-20	9	10	1.2
CC(C)C(=O)Nc1ccc(-c2nnc(-c3ccccc3)o2)cc1	2842	-3	-2	-25	8	-3	2.9
CCOC(=O)Cn1nc2sc3ccccc3n2c(=O)c1=O	4152	2	-4	-79	-3	-9	-3.7
COc1cccc(NC(=S)N(CCc2c(C)[nH]c3ccc(C)cc23)Cc2cccs2)c1	4420	19	5	-8	11	8	4.7

More records follow:
SMILES	Autofluor counter	Sa ugtP lethal	BJeLR lethal	PrP 5UTR inh	Mtb hypoxia rep	Mtb hypoxia rep growth	Sa RN4220 lethal
Cc1ccc(Sc2ncccc2C(=O)O)cc1C	2488	6	0	-24	9	2	3.6
CCc1nc2oc3ccc(C)cc3c(=O)c2cc1C(=O)OC	3601	3	2	-87	12	4	6.9
N#C/C(=C\c1ccc(N2CCOCC2)o1)c1nc2ccccc2[nH]1	11443	1	3	-4	/	/	1.8
COc1cc(OC)cc(C(=O)NNC(=O)c2cc3ccccc3cc2O)c1	3642	-11	-2	-17	10	0	-3.0
N#Cc1c(-c2ccc(Cl)cc2)cc(-c2ccccc2)nc1SCC(=O)O	3143	74	-7	-12	8	-1	49
CC(C)(C)C1CCC(C(=O)Nc2ccccc2)CC1 (configuration not stated)	9969	7	1	7	13	16	3.5
O=C(N/N=C/c1cccc([N+](=O)[O-])c1)c1cccs1	2918	/	3	-49	/	/	/
COc1ccc(S(=O)(=O)NC(C)C(=O)NCc2ccncc2)cc1C (configuration not stated)	5755	8	13	0	1	13	3.4
Cc1ccccc1NC(=O)c1ccc(NC(=O)c2ccco2)cc1	11184	4	/	/	9	12	2.8
CCCNC(=O)c1ccc(COc2ccc(C)cc2)o1	3644	13	-7	-17	5	0	4.3
CC(CN1CCCCC1)OC(=O)c1ccco1 (configuration not stated)	6101	4	8	-16	-6	-10	-0.4
O=C(NCc1cccnc1)C(=O)c1c[nH]c2ccccc12	5150	11	-2	-30	8	4	4.3
COc1ccc(S(=O)(=O)N(C)C[C@H]2Oc3ccc(NS(=O)(=O)c4ccccc4)cc3C(=O)N([C@H](C)CO)C[C@@H]2C)cc1	2848	8	/	-14	3	3	1.8
CCCCN(CC)CCNC(=O)c1cc2c(=O)[nH]c3ccccc3c2s1	4007	10	-2	8	3	2	-2.5
CCOC(=O)NN1C(=O)c2ccccc2NC1c1ccc(OC)cc1 (configuration not stated)	7722	4	-3	-54	0	4	-1.1
COc1cc(/C=N/O)ccc1Oc1ccc([N+](=O)[O-])cc1[N+](=O)[O-]	2557	/	3	-28	/	/	/
COc1ccc(C2C(C(N)=O)=C(C)Nc3nc(CCCO)nn32)cc1OC (configuration not stated)	4356	3	6	-15	3	-7	4.1
CC1=C(C(=O)N2CCOCC2)C(c2cccs2)NC(=O)N1 (configuration not stated)	2826	9	5	-17	/	/	2.6
O=C(NNc1ccccc1[N+](=O)[O-])Nc1ccc(F)cc1	2030	5	-3	-47	10	2	7.7
CC(=O)Nc1c(O)c2ccccc2[nH]c1=O	4612	2	0	-2	5	0	1.8

Part of the list above, in CSV form.
compound,Autofluor counter,Sa ugtP lethal,BJeLR lethal,PrP 5UTR inh,Mtb hypoxia rep,Mtb hypoxia rep growth,Sa RN4220 lethal
O=C(N/N=C/c1cccc([N+](=O)[O-])c1)c1cccs1,2918,/,3,-49,/,/,/
COc1ccc(S(=O)(=O)NC(C)C(=O)NCc2ccncc2)cc1C (configuration not stated),5755,8,13,0,1,13,3.4
Cc1ccccc1NC(=O)c1ccc(NC(=O)c2ccco2)cc1,11184,4,/,/,9,12,2.8
CCCNC(=O)c1ccc(COc2ccc(C)cc2)o1,3644,13,-7,-17,5,0,4.3
CC(CN1CCCCC1)OC(=O)c1ccco1 (configuration not stated),6101,4,8,-16,-6,-10,-0.4
O=C(NCc1cccnc1)C(=O)c1c[nH]c2ccccc12,5150,11,-2,-30,8,4,4.3
COc1ccc(S(=O)(=O)N(C)C[C@H]2Oc3ccc(NS(=O)(=O)c4ccccc4)cc3C(=O)N([C@H](C)CO)C[C@@H]2C)cc1,2848,8,/,-14,3,3,1.8
CCCCN(CC)CCNC(=O)c1cc2c(=O)[nH]c3ccccc3c2s1,4007,10,-2,8,3,2,-2.5
CCOC(=O)NN1C(=O)c2ccccc2NC1c1ccc(OC)cc1 (configuration not stated),7722,4,-3,-54,0,4,-1.1
COc1cc(/C=N/O)ccc1Oc1ccc([N+](=O)[O-])cc1[N+](=O)[O-],2557,/,3,-28,/,/,/
COc1ccc(C2C(C(N)=O)=C(C)Nc3nc(CCCO)nn32)cc1OC (configuration not stated),4356,3,6,-15,3,-7,4.1
CC1=C(C(=O)N2CCOCC2)C(c2cccs2)NC(=O)N1 (configuration not stated),2826,9,5,-17,/,/,2.6
O=C(NNc1ccccc1[N+](=O)[O-])Nc1ccc(F)cc1,2030,5,-3,-47,10,2,7.7
CC(=O)Nc1c(O)c2ccccc2[nH]c1=O,4612,2,0,-2,5,0,1.8

Following part.
SMILES	Autofluor counter	Sa ugtP lethal	BJeLR lethal	PrP 5UTR inh	Mtb hypoxia rep	Mtb hypoxia rep growth	Sa RN4220 lethal
S=c1[nH]nc(-c2ccco2)n1/N=C/c1cccc(Cl)c1	3753	/	2	-18	/	/	/
O=C(NCc1cccs1)C1CCCN(S(=O)(=O)c2ccc(Br)s2)C1 (configuration not stated)	4322	11	0	-8	/	/	-3.2
COc1c(F)c(F)c(C(=O)O)c(Nc2ccccc2C)c1F	21437*	-6	-8	3	-7	-2	6.9
COC(=O)c1sc(SC)c(-c2ccon2)c1C	5933	15	1	-27	14	-4	4.5
Fc1ccc(N=C2NN=C(c3cc(F)ccc3F)CS2)cc1	2483	-13	/	-61	5	3	22
CC(=NNC(=O)OC(C)(C)C)c1ccc(-n2ccnc2)cc1	/	3	/	/	11	16	6.5
